Bioassay records as filed in PubChem BioAssay.
Insulin prom inh = TRM-6 insulin promoter activity inhibition; AID 1273; inhibition, % at 2 µM; TRM-6 cells (human fetal islet line), insulin promoter-eGFP reporter, imaging; reporter expression induced with tamoxifen; 0.9% of 130,000 active;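 active = inhibition above the mean plus 3 SD, with well images judged a real hit on visual review, cut at about 60% in these data, passing the limit was not always enough; inconclusive = inhibition over the cutoff but images rejected on review; inactive = inhibition not above the cutoff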
HSV replic up = increases HSV replication in cells; HSV replication augmentation in cells, fold increase; maximum fold increase; 0.005% of 220,000 active; AID 1956;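 active = peak rise of 1.5-fold or more in the series; inconclusive = self-fluorescent or not available for retest; tested in PC3 cells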;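 note: first round at 10 µM; read as green reporter fluorescence; hits show the peak of a series up to 25 µM; 1 = signal of infected wells without compound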
PKD1 inh = blocks activity of human protein kinase D1; Q15139; PKD1 kinase fluorescence polarization assay; inhibition, %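 (about 10 µM by stock and volumes)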; 0.056% of 200,000 active;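 active = inhibition of 50% or more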;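 note: controls were vehicle for no effect and a reference inhibitor for full effect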
RGS16-Gao = RGS16-Galphao interaction regulator (human); O15492+P09471; bead-based flow cytometry RGS16-Galphao binding, fluorescence; actives lie on both sides; binding response (% of control), % at 10 µM; 0.38% of 220,000 active;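 active = below 25% or above 175%, edge rows of some plates excepted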;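 note: Galphao activated by GDP with aluminum fluoride before binding; 100% = wells without compound and 0% = beads without RGS; some results beyond the cut were filed as inactive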
Target sequence (O15492 whole entry, looked up): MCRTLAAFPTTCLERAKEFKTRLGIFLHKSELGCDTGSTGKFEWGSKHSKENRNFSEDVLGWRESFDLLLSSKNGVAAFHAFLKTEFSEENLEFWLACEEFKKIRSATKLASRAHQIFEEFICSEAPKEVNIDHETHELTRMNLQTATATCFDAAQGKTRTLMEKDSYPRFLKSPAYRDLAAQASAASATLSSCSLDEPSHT
Target sequence (P09471 whole entry, looked up): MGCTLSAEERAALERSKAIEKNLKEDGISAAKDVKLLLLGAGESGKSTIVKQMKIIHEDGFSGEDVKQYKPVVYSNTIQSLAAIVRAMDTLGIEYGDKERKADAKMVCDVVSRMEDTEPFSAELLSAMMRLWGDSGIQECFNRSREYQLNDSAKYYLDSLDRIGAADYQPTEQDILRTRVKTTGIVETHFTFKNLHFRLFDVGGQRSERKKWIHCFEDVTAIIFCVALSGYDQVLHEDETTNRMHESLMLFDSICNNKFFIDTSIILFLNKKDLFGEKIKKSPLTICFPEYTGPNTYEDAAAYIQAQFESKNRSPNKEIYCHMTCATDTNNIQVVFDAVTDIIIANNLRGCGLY
GALR2 agonist = agonists of human galanin receptor 2 (GALR2). GALR2-expressing cells, agonist activation read-out. activation, %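 (tested at 5 µM)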. 0.48% of 140,000 active. AID 803;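 active = above mean plus 3 SD of all compounds, about 5% in these data, not always enough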;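 note: 0% = vehicle buffer wells and 100% = reference agonist at full effect; tested in CHO reporter cells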
Target sequence (O43603 whole entry, looked up): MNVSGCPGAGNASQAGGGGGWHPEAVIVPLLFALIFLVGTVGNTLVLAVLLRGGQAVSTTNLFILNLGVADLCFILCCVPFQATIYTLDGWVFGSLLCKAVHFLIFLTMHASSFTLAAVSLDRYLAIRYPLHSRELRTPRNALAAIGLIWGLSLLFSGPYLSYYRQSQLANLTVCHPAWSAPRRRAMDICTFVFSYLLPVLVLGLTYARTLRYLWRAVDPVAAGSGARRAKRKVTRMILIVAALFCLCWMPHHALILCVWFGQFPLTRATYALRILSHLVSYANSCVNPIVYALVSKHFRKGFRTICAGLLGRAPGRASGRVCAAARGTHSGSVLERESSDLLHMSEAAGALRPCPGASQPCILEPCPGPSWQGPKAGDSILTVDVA
Insulin prom inh cell count = also measured in Insulin prom inh; calls as there; normalized cell count, %; measured here: cell count, toxicity; reference of the scale not given here;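 cells exposed to compound for 48 h; stained nuclei by imaging scaled within each plate; lower means fewer cells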
HSV replic up primary fold = second read-out of HSV replic up, no call of its own (marks repeat the call); fold increase; compound at 10 µM; measured here: primary screen fold increase 10 uM; tested in PC3 cells;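 GFP signal in the first replicate; 1 = infected wells without compound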
* hit, by the source's call; i = inactive; ? = inconclusive; nt = not tested or not shown; & = joins results of further samples.

cpd	mol	Insulin prom inh	Insulin prom inh cell count	HSV replic up	HSV replic up primary fold	PKD1 inh	RGS16-Gao	GALR2 agonist
1	O=C(N/N=C/c1cccnc1)c1ccccc1OCc1ccc(Cl)cc1	4	79	i	0.95	9	97	nt
2	CC(C)Nc1nc(NC(C)C)nc(N(C#N)C(C)C(=O)N(C)C)n1 (centres undefined)	50	81	i	0.99	0	99	nt
3	COc1ccccc1/C=C/C(=O)OCC(=O)Nc1cc(C(F)(F)F)ccc1N1CCOCC1	nt	nt	i	0.85	10	99	2.0
4	COc1ccc(/C=N/N2CCN(c3ccccc3OC)CC2)cc1OC	-22	97	i	0.69	5	107	-1.6
5	COc1cc2c(cc1OC)C[N+](C)(C)CC2	nt	nt	i	1.2	-3	99	nt
6	NNC(=O)c1ccc(OCC2CC(c3ccc(Cl)cc3)=NO2)cc1 (centres undefined)	nt	nt	i	0.8	nt	96	nt
7	O=C(NCc1cccnc1)c1ccc(N2CCOCC2)c([N+](=O)[O-])c1	-25	142	i	1	-4	104	nt
8	N#Cc1cccc(C#N)c1Oc1ccc(S(=O)(=O)Nc2ccc(Cl)cc2)cc1	nt	nt	i	1.1	nt	103	nt
9	CC(C)(C)c1ccc(C(=O)NNC(=O)C(=O)N2CCCCC2)cc1	-37	85	i	0.92	-9	106	-0.8
10	CC1(c2ccccc2)CC(C)(C)N2C(=O)C(=O)c3cccc1c32 (centres undefined)	nt	nt	i	1.1	-5	98	nt
11	CCN(C(=O)CN1CCN(c2ccccc2)CC1)c1c(N)n(Cc2ccccc2)c(=O)[nH]c1=O	nt	nt	i	0.97	-8	100	0.0
12	CCOC(=O)N1CCN(C(=O)c2cn(CC)c3ccc(S(=O)(=O)N4CCC(C)CC4)cc3c2=O)CC1	0	157	nt	nt	-1	110	nt
13	CCCN(CCC)S(=O)(=O)c1ccc(C(=O)OCCN2C(=O)c3cccc4c(N5CCOCC5)ccc(c34)C2=O)cc1	-89	95	?	nt	-6	108	-2.3
14	CCOC(=O)C1CCN(c2cc(=O)n(C3CCCCC3)c(=O)[nH]2)CC1	nt	nt	i	0.93	8	98	-0.3
15	N#CC1=C(N)Oc2n[nH]c(-c3cccs3)c2C1c1ccco1 (centres undefined)	-49	118	i	0.99	-2	94	-2.7
16	CC1S/C(=C(\C#N)C(=O)NCc2ccco2)N(Cc2ccco2)C1=O (centres undefined)	-23	80	i	0.99	-13	100	-0.6
17	Cc1cc(C)c(NC(=O)CSc2nnc(-c3ccccn3)n2N)c(Cl)c1	nt	nt	i	0.99	nt	104	nt
18	Cc1nc(C(=O)NCc2ccccc2)sc1C1(C)CC(c2ccccc2)=NO1 (centres undefined)	nt	nt	i	0.9	nt	106	nt
19	O=C(CSc1cn(CC(=O)N2CCCCC2)c2ccccc12)NCC1CCCO1 (centres undefined)	-107	114	i	1.1	-12	101	nt
20	C=CCn1cc(-c2cccc(Cl)c2)cc(C#N)c1=O	-23	166	i	0.96	-6	98	-3.3
21	Cc1nnc(N/N=C/c2cc([N+](=O)[O-])c(N3CCC(C)CC3)cc2N2CCC(C)CC2)n1N	-8	82	i	0.92	-5	96	-1.1
22	CN1C(=O)CC(C(=O)Nc2ccc(F)cc2)SC1=Nc1ccc2c(c1)OCO2 (centres undefined)	-100	111	i	1	-18	119	-1.6
23	O=C1NC2(CCCCC2)C(=O)N1CCS(=O)(=O)Oc1ccc(Br)cc1	nt	nt	i	1.1	-4	102	nt
24	O=C(OCCN1CCCC1=O)c1cncc(Br)c1	34	60	i	0.89	3	102	-0.8
25	O=C(CSc1nnc(-c2ccccc2Cl)o1)Oc1ccc(Br)cc1	-359	65	i	1	4	84	-2.7
26	C(=N\N1CCN(Cc2ccccc2)CC1)/c1cccnc1	17	80	i	0.98	-8	106	-0.6
27	COC(=O)C1=C(C)Nc2c(c(=O)n(C)c(=O)n2C)C1c1ccncc1 (centres undefined)	24	151	i	0.94	2	108	-0.3
28	O=C(CSc1nc2ccccc2c(=O)n1-c1ccccc1)NC(=O)CN1CCCC1=O	33	86	i	0.94	6	105	nt
29	Cn1ccnc1C(=O)c1cc(=O)c2ccccc2o1	36	76	i	0.86	-5	97	-1.7
30	Cc1cccc(N2CCN(C(=O)c3cc4n(n3)C(C(F)(F)F)CC(c3ccco3)N4)CC2)c1C (centres undefined)	nt	nt	i	1	5	94	1.5

The closing four compounds of the part above lead into the next.
cpd	mol	Insulin prom inh	Insulin prom inh cell count	HSV replic up	HSV replic up primary fold	PKD1 inh	RGS16-Gao	GALR2 agonist
27	COC(=O)C1=C(C)Nc2c(c(=O)n(C)c(=O)n2C)C1c1ccncc1 (centres undefined)	24	151	i	0.94	2	108	-0.3
28	O=C(CSc1nc2ccccc2c(=O)n1-c1ccccc1)NC(=O)CN1CCCC1=O	33	86	i	0.94	6	105	nt
29	Cn1ccnc1C(=O)c1cc(=O)c2ccccc2o1	36	76	i	0.86	-5	97	-1.7
30	Cc1cccc(N2CCN(C(=O)c3cc4n(n3)C(C(F)(F)F)CC(c3ccco3)N4)CC2)c1C (centres undefined)	nt	nt	i	1	5	94	1.5
31	CN1[C@@H](CC(=O)c2ccccc2)CCC[C@H]1C[C@H](O)c1ccccc1	-14	111	nt	nt	-19	103&98	0.2
32	Oc1cccc(C=NCc2ccccc2)c1	-11	215	i	0.93	-8	103	-3.4
33	CCOC(=O)CNC(=O)c1nn(-c2cccc(OC)c2)c(=O)c2ccccc12	nt	nt	i	1.1	-14	101	-0.3
34	N#CC(C#N)=c1ccc2c(c1)NC1(CCCCC1)N=2	nt	nt	i	0.67	-3	122	-1.4
35	COc1cc(/C=N/Nc2ccc(S(N)(=O)=O)cc2[N+](=O)[O-])cc(OC)c1O	nt	nt	i	0.73	nt	101	nt
36	CCOC(=O)c1nn(-c2ccccc2C)c(=O)c(C#N)c1C	28	100	i	0.93	2	101	-0.5
37	Cn1nccc1NC(=O)NC(=O)c1c(Cl)cccc1Cl	nt	nt	i	1	nt	98	nt
38	CC(OC(=O)c1cccnc1Cl)C(=O)Nc1ccc(S(N)(=O)=O)cc1 (centres undefined)	23	105	i	1	2	94	nt
39	Cc1ccc(C)c(NC(=O)c2ccc(OC(=O)c3ccco3)cc2)c1	nt	nt	i	1	6	104	-3.2
40	CSc1cccc(NC(=O)Nc2ccccc2)c1	-17	157	i	0.87	-4	100	-1.1
41	CCCCn1c(=O)[nH]c(=O)c2c(C(=O)OCC)cc(-c3cccs3)nc21	nt	nt	i	0.88	-5	96	nt
42	NS(=O)(=O)c1cccc(NC(=O)CSc2nc3ccccc3[nH]2)c1	nt	nt	i	1.1	nt	97	nt
43	CC1CCC(=NNc2ccc(C(F)(F)F)cc2[N+](=O)[O-])CC1 (centres undefined)	nt	nt	i	1.1	3	114	-0.2
44	C=CCn1c(C)c(C(C)=O)cc(NC(=O)c2ccccc2)c1=O	nt	nt	i	0.97	3	94	nt
45	COc1ccc(O)c(C(=O)c2cnc3c(c2)c(-c2ccc(F)cc2)c(C#N)c(=O)n3C)c1	20	108	i	0.94	7	100	nt
46	COC(=O)N/N=C/c1ccc(-c2ccc(C)c(Cl)c2)o1	nt	nt	i	0.94	-4	104	0.1
47	CCOc1ccc(NC(=O)CCC(=O)N/N=C/c2ccc3c(c2)OCO3)cc1	nt	nt	i	1	0	103	nt
48	Cc1cc(=O)oc2cc(OCC3CC(c4ccc(Br)cc4)=NO3)ccc12 (centres undefined)	-14	77	i	0.96	0	106	-2.1
49	C=CCn1c(O)c(N=NC(=O)CNC(=O)/C=C/c2ccc(OC)cc2)c2ccccc21	nt	nt	i	0.83	nt	102	nt
50	O=C(c1ccccc1)c1c[nH]c(C(=O)NCCCn2ccnc2)c1	nt	nt	i	0.99	0	98	-0.3
51	CCN(CC)CCNC(=O)Cn1nc(Cc2cccnc2)c2ccccc2c1=O	nt	nt	i	0.88	-1	113	-1.0
52	COc1ccccc1C1(CCNS(=O)(=O)c2ccc(C)cc2)CCOC(C(C)C)C1 (centres undefined)	nt	nt	i	0.91	8	97	-0.1
53	O=C1c2ccccc2NC(c2cnc3ccccc3n2)N1O (centres undefined)	-100	104	i	0.88	9	107	-2.8
54	Cc1ccc(N(C(C)C(=O)NCc2ccncc2)S(C)(=O)=O)cc1C (centres undefined)	nt	nt	i	0.85	-1	102	nt
55	O=C(Nc1ccccc1C(=O)NC1CCCCC1)c1ccco1	-49	99	i	0.91	-3	106	-2.1
56	Cc1cccc(NC(=O)Nc2ccncc2)c1	14	112	i	1.1	13	100	nt
57	CC(=O)Nc1cccc2c1C(=O)N(c1ccccc1OC(C)=O)C2=O	nt	nt	i	0.98	-1	118	nt
58	Cc1cc(OC(=O)c2ccccc2Cl)ccc1N1C(=O)CCC1=O	-29	110	i	0.96	9	100	nt
59	Cc1ccnc(NC(=S)NC(=O)c2cccs2)c1	-7	160	i	0.89	1	98	0.2
60	COc1ccc(OC)c(C2C(C(=O)Nc3ccc(F)cc3)=C(C)Nc3nc(CCCO)nn32)c1 (centres undefined)	-30	92	i	0.86	3	97	-3.0
61	COc1cc2ccc(=O)oc2cc1OCC(O)C(C)(C)O (centres undefined)	nt	nt	i	0.82	nt	111	nt
62	COc1ccc(-c2nc3c4ccccc4ccn3c2C=O)cc1	41	62	i	0.91	-5	49	nt
63	Cc1ccc(C(=O)OC2CCS(=O)(=O)c3sccc32)cc1 (centres undefined)	30	93	i	0.89	-1	115	-0.4
64	NC(=O)CC(NC(=O)Cc1ccc(Cl)cc1)c1ccc(NCC2CC2)c([N+](=O)[O-])c1 (centres undefined)	nt	nt	i	0.69	nt	98	nt
65	CCCN1CCN(C(=S)Nc2ccccc2C(F)(F)F)CC1	nt	nt	i	1.1	1	104	0.0
66	On1nnc2cc(C(F)(F)F)ccc21	nt	nt	i	0.94	-3	99	nt
67	CCOC(=O)C1=C(C)NC(=S)NC1c1cccs1 (centres undefined)	7	109	i	1	-10	104	-1.5
68	Cc1ccc(SCC(=O)NCCC2=CCCCC2)cc1	19	143	i	1.1	6	102	-2.2
69	Cc1cc(N2CCN(C)CC2)ccc1NC(=O)c1c2c(nc3ccccc13)CCN(Cc1ccccc1)C2	36	29	nt	nt	-3	86	nt
70	Cc1nn(Cc2ccccc2)c2c1C(c1ccco1)C(C#N)=C(N)O2 (centres undefined)	12	97	i	0.95	-3	99	-0.2
71	COCCn1cnnc1SCC(=O)c1ccc(S(=O)(=O)N2CCCC2)cc1	nt	nt	i	0.97	-6	88	-1.7
72	CN(CC(=O)Nc1ccccc1Br)Cc1nc2ccccc2c(=O)[nH]1	10	86	i	0.96	10	93	-1.4
73	O=C1CN(C(=O)c2ccc(Br)o2)C(c2ccc(F)cc2)c2cc(Cl)ccc2N1 (centres undefined)	nt	nt	i	1.1	3	103	1.4
74	CC1CCc2nc(NC(=O)CN3CCN(c4ccc(F)cc4)CC3)sc2C1 (centres undefined)	-3	30	i	0.98	2	95	-2.6
75	CCOC(=O)N/N=C(\C)c1cccs1	22	140	i	0.79	9	108	nt
76	Cc1cccc(C(=O)Nc2cccc(C(=O)N3CCOCC3)c2)c1	-11	79	i	0.69	-1	103	0.5
77	CCN(CC)CCNC(=O)CS(=O)Cc1nc(-c2ccc(C)cc2)oc1C (centres undefined)	nt	nt	i	0.91	-2	98	-0.6
78	O=C(NN=C1CCC(=NNC(=O)c2cccnc2)CC1)c1cccnc1	nt	nt	i	0.98	-4	101	nt
